Assay outcomes from PubChem BioAssay.
NPYLR7 agonist: mosquito NPYLR7 agonism; AID 1259423; actives 0.15% (n = 270,000); HEK293T NPYLR7/Galpha15, GCaMP6s calcium fluorescence; activation, % at 10 µM; in the data active = activation above about 40%;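 note: 0% = vehicle and 100% = reference agonist at the receptor; some compounds past the cut are filed as inactive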
NPYLR7 agonist max-min: also measured in NPYLR7 agonist; calls as there; activation, %; measured here: Max-Min RFU normalised activation; some inactives read as strong as hits;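 span of the calcium signal over five minutes; 0% = vehicle and 100% = native peptide agonist; compound fluorescence can raise it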
The depositor's hits bear a star; & = joins results of further samples. These rows are one share of the data, so the mix of outcomes need not match the whole.

SMILES | NPYLR7 agonist | NPYLR7 agonist max-min
O=C(C1CCCN(C2CCN(c3ncnc4ccsc34)CC2)C1)N1CCCC1 (stereo not drawn) | -0.1 | -7.5
Cc1nccc(N2CCCC(C/C=C/c3ccccc3)(C(=O)O)C2)n1 (stereo not drawn) | 2.0 | -17.1
Cc1cccc(C(=O)N2C(C(=O)NCc3ccco3)COC23CCN(C(=O)c2cccc(F)c2)CC3)c1 (stereo not drawn) | -1.8 | -1.2
O=C1NC(=S)S/C1=C/c1cccc(O)c1 | -1.6 | -5.3
O=C(N=C1N=C2C=CC(Cl)=CN2Cc2ccccc21)c1ccc(=O)oc1 | 12.5 | 12.0
Cc1ccc(NNC2CC(=O)N(N(C)C)C2=O)cc1 (stereo not drawn) | -10.2 | -15.2
Cc1nc(N2CCCCC2)c2sc(=S)n(C)c2n1 | -0.4 | -4.0
O=C1/C(=C\c2ccncc2)SC(=S)N1Nc1ccc([N+](=O)[O-])cc1[N+](=O)[O-] | 15.5 | 23.1
COC(=O)c1ccc2oc(=O)n(C3CCN(C(=O)C(C)Oc4ccccc4)CC3)c2c1 (stereo not drawn) | -7.1 | 3.2
Cc1cccc(CN2CCc3c(O)cccc3C2=O)c1 | -0.8 | -1.3
Cc1cc(C(=O)N2CCc3c(nc(C)[nH]c3=O)C2)c2cnn(C(C)C)c2n1 | 2.2 | 2.8
CN=c1scc(-c2ccc(OC(F)F)cc2)n1N=Cc1cccc(O)c1O | -20.7 | -24.8
CN(CCCNC(=O)C(C)(C)Oc1ccc(C(N)=O)cc1)c1ccccc1 | -6.9 | -14.2
CC(C)=CCN1CCN(Cc2cccc(F)c2)CC1CCO (stereo not drawn) | 3.0&-0.4 | -0.6&-2.5
COc1cccc2c1CCC1CC(=O)CC[C@]21C (stereo partly drawn) | -12.3 | -17.8
CC(C)CNC(=O)C(NS(C)(=O)=O)C(C)(C)C (stereo not drawn) | 0.7 | 0.2
Cc1noc(C)c1CSc1ncnc2sc3c(c12)CCCC3 | 1.5 | 1.2
CCc1ccc(NC(=O)Nc2ccc(N3CCCC3)c(C(=O)NCCc3ccccc3)c2)cc1 | 7.6&13.5 | 8.4&10.8
CC(=O)Nc1ccc(C(C)=O)cc1OCC(=O)Nc1ccc(F)c(F)c1 | 15.3 | 5.1
Cc1ccc(OCc2cc3c(cc2Br)OCO3)c([N+](=O)[O-])n1 | 2.2 | -0.8
CCc1oc2ccccc2c1CN1CCN(C)C2(CCN(C)CC2)C1 | 0.8 | -6.8
CCOc1ccc(-n2nnnc2CNC(=O)c2cc(OC)cc(OC)c2)cc1 | 9.1 | 6.9
COc1ccc(C2SCCN2C(=O)c2ccc(F)cc2)c(OC)c1 (stereo not drawn) | -4.2 | -1.3
COc1ccc(-n2nnc3c(N4CCN(C(C)=O)CC4)ncnc32)cc1 | -10.8 | -14.9
Cn1c(SCC(=O)c2ccccc2)nnc1C1COc2ccccc2O1 (stereo not drawn) | 15.3 | 3.7
COc1ccccc1OCC1CN(C(=O)c2coc(C)c2)CCO1 (stereo not drawn) | 20.2 | 20.4
O=S1(=O)CCC(n2ncc3c2/C(=C\c2ccccc2)CC3)C1 (stereo not drawn) | 0.4 | 0.6
COc1cccc(Cc2nsc(N3CCN(C(=O)c4cc(C(F)(F)F)cc(C(F)(F)F)c4)CC3)n2)c1 | -1.5 | 5.1
CN(C)CCCNc1cn[nH]c(=O)c1Cl | 1.6 | -2.0
CCOc1ccccc1N1CCN(C(=O)CCN2CCCCO2)CC1 | 11.9 | 2.6
COc1cccc(-n2cnnc2SCC(=O)c2ccc(F)c(F)c2)c1 | 16.6 | 5.5
COc1ccc(-n2nnc(C(=O)OCc3ccc(Cl)cc3)c2C)cc1Cl | 6.1 | -2.2
Cc1cc(Oc2ccc(-c3ccccc3)cc2)nc(N)n1 | 1.6 | 1.4
CC1(C(=O)NS(=O)(=O)c2ccc3c(c2)CCO3)CCN1C(=O)C1CC1 (stereo not drawn) | 1.7 | 0.5
c1ccc2c(c1)OC1(CCCCC1)N1N=C(c3ccc4c(c3)OCCO4)CC21 (stereo not drawn) | 5.3 | 6.5
CCOC(=O)[C@@H]1[C@@H](O)C(=O)N(Cc2ccccc2)C12CCN(C(=O)c1cccc(OC)c1)CC2 | 17.7 | 28.0

19 consecutive records already listed:
SMILES | NPYLR7 agonist | NPYLR7 agonist max-min
O=C(C1CCCN(C2CCN(c3ncnc4ccsc34)CC2)C1)N1CCCC1 (stereo not drawn) | -0.1 | -7.5
Cc1nccc(N2CCCC(C/C=C/c3ccccc3)(C(=O)O)C2)n1 (stereo not drawn) | 2.0 | -17.1
Cc1cccc(C(=O)N2C(C(=O)NCc3ccco3)COC23CCN(C(=O)c2cccc(F)c2)CC3)c1 (stereo not drawn) | -1.8 | -1.2
O=C1NC(=S)S/C1=C/c1cccc(O)c1 | -1.6 | -5.3
O=C(N=C1N=C2C=CC(Cl)=CN2Cc2ccccc21)c1ccc(=O)oc1 | 12.5 | 12.0
Cc1ccc(NNC2CC(=O)N(N(C)C)C2=O)cc1 (stereo not drawn) | -10.2 | -15.2
Cc1nc(N2CCCCC2)c2sc(=S)n(C)c2n1 | -0.4 | -4.0
O=C1/C(=C\c2ccncc2)SC(=S)N1Nc1ccc([N+](=O)[O-])cc1[N+](=O)[O-] | 15.5 | 23.1
COC(=O)c1ccc2oc(=O)n(C3CCN(C(=O)C(C)Oc4ccccc4)CC3)c2c1 (stereo not drawn) | -7.1 | 3.2
Cc1cccc(CN2CCc3c(O)cccc3C2=O)c1 | -0.8 | -1.3
Cc1cc(C(=O)N2CCc3c(nc(C)[nH]c3=O)C2)c2cnn(C(C)C)c2n1 | 2.2 | 2.8
CN=c1scc(-c2ccc(OC(F)F)cc2)n1N=Cc1cccc(O)c1O | -20.7 | -24.8
CN(CCCNC(=O)C(C)(C)Oc1ccc(C(N)=O)cc1)c1ccccc1 | -6.9 | -14.2
CC(C)=CCN1CCN(Cc2cccc(F)c2)CC1CCO (stereo not drawn) | 3.0&-0.4 | -0.6&-2.5
COc1cccc2c1CCC1CC(=O)CC[C@]21C (stereo partly drawn) | -12.3 | -17.8
CC(C)CNC(=O)C(NS(C)(=O)=O)C(C)(C)C (stereo not drawn) | 0.7 | 0.2
Cc1noc(C)c1CSc1ncnc2sc3c(c12)CCCC3 | 1.5 | 1.2
CCc1ccc(NC(=O)Nc2ccc(N3CCCC3)c(C(=O)NCCc3ccccc3)c2)cc1 | 7.6&13.5 | 8.4&10.8
CC(=O)Nc1ccc(C(C)=O)cc1OCC(=O)Nc1ccc(F)c(F)c1 | 15.3 | 5.1

Remaining list, next part:
SMILES | NPYLR7 agonist | NPYLR7 agonist max-min
COC(=O)c1cccc(-c2nccn2C2CCCC2)n1 | -5.3 | -11.7
O=C(Nc1cccnc1)c1ccc2c(c1)C(=O)N(c1ccccc1Cl)C2=O | 2.1 | -0.1
Cc1nc2cc(F)ccc2cc1C(=O)N1CCN(S(=O)(=O)c2ccc(F)c(Cl)c2)CC1 | 1.4 | -2.7
COc1cccc(OCc2nc(C(=O)N(C)Cc3ccccc3)cs2)c1 | -0.2 | -8.2
O=C(NCC1(CO)CC1)c1ccccc1-n1cccn1 | 1.8 | -0.7
Cc1cc(C2CCCN(CC(=O)NC3CCS(=O)(=O)C3)C2)n[nH]1 (stereo not drawn) | 1.3 | 11.1
Cc1ccccc1C(=O)N1CCSC12CCN(C(=O)c1ccc3ccccc3c1)CC2 | -6.7 | -6.5
Cc1cc(Nc2nc3ccccc3n3cnnc23)c2ccccc2n1 | 6.0 | 4.7
Cc1cn2c3c(=O)n(CCCc4ccccc4)c(=O)n(C)c3nc2n1C(C)C | 2.0 | 8.8
COc1ccc(C)cc1NC(=O)N1CC(=O)N2CCc3cc(F)ccc3C2C1 (stereo not drawn) | 3.9 | -2.6
C/C(=N/NC(=O)c1ccccc1C)c1ccc(N2CCCCC2)cc1 | -2.8 | -3.5
COc1ccc(-c2csc(C=Cc3ccc4c(c3)OCO4)n2)cc1 | -0.7 | 0.9
CNS(=O)(=O)c1ccc2c(c1)CCN2C(=O)c1ccc(F)cc1F | -4.0 | 0.8
N#Cc1ccccc1CO[C@]1(C(=O)NC2CC2)CC(OCc2cccc(OC(F)(F)F)c2)[C@H](O)[C@H](O)C1 (stereo partly drawn) | 5.6 | 9.2
CCN(CC)C(=O)C(C)NS(=O)(=O)c1ccc(Br)c(C)c1 (stereo not drawn) | 3.2 | 2.6
CCCCCCC(=O)Nc1ccc(C2SCC(=O)N2c2cccc(F)c2C)cc1 (stereo not drawn) | 32.3 | 28.4
CCOC(=O)C1CCCN(C(=O)c2ccc(CSc3nc(C)c(C)c(N(CC)CC)n3)cc2)C1 (stereo not drawn) | -1.5 | -3.7
O=C(C1CCCC1)N1CCN(Cc2cccc(-c3noc(-c4ccco4)n3)c2)CC1 | 3.1 | -1.2
CCOC(=O)CCNC(=O)NCc1nnnn1-c1ccc(OCC)cc1 | 5.2 | 6.3
O=C(CCC(=O)N1CC[C@H](O)[C@@H](O)C1)NC1CCCCCCC1 | 5.2 | 2.1
COc1ccc(Cl)c2sc(N(CC3CCCO3)C(=O)C3CCCC3)nc12 (stereo not drawn) | -0.5 | -1.7
Cc1cc(Cl)ccc1N1CCN(C(=O)Cc2ccccc2)C(C)C1=O (stereo not drawn) | 0.5 | 6.1
CSc1nnc(-c2cc(C)on2)n1-c1cccc(Br)c1 | 10.0 | 5.3
CC(C)C1CN(C(=O)c2cn[nH]c2-n2cnnn2)CCCN1CC1CC1 (stereo not drawn) | 8.0 | 6.2
CCC(C)c1cc(S(=O)(=O)N2CCN(c3ccccc3C)CC2)ccc1OC (stereo not drawn) | -0.6 | -6.3
Cc1ccc(C2(O)CCN(C(=O)c3ccc4c(c3)nnn4C)CC2)nc1 | -0.8 | -4.6
CC(=O)NC12CC3CC(CC(CC(=O)O)(C3)C1)C2 | 13.1 | 11.4
Cc1[nH]c2ccccc2c1CC(=O)N(C)CCC#N | 3.1 | -1.5
Cc1cc(C(=O)N2CCN(Cc3cccc(-c4noc(-c5cccnc5)n4)c3)CC2)no1 | -0.8 | 0.4
Cc1ccc(C2SCCN2C(=O)C(c2ccccc2)c2ccccc2)s1 (stereo not drawn) | 19.2 | 23.1
Cc1sc2nc(CN3CCOCC3)nc(N(C)C3CCCCC3)c2c1C | 6.0 | 13.5
Nc1nonc1-c1noc(-c2ccc(Cl)cc2Cl)n1 | 1.9 | -3.0
O=C(C=Cc1cccnc1)c1ccc2c(c1)OCO2 | 0.0 | 0.0
COc1ccc(NC(=O)CNC(=O)CN(CC(C)C)C(=O)c2ccc(Cl)c([N+](=O)[O-])c2)cc1 | 18.6 | 22.1
CC(=O)Nc1ccc(NC(=O)CCc2csc(NC(=O)c3ccc[nH]c3=O)n2)cc1 | -3.4 | -9.8
CCn1nnc2c(=O)n(CC(=O)Nc3ccc(OC)cc3)cnc21 | 0.5 | 21.7
CN1CCN(C(=O)CCC2CCCN(Cc3ccc(Cl)c(F)c3)C2)CC1 (stereo not drawn) | 3.6 | -0.8
CC(C)CN(C)S(=O)(=O)c1ccccc1C(=O)N1CCOCC1 | 0.5 | -0.4
Cc1nc(SCc2nc3ccsc3c(=O)[nH]2)c2c(-c3cccs3)csc2n1 | -2.1 | -4.0
O=C(NC(C(=O)N1CCCC1)C1CCN(C(=O)c2cccc(F)c2)CC1)c1ccc2c(c1)OCO2 (stereo not drawn) | 9.5 | 11.6
COc1ccc(NS(=O)(=O)c2ccc(OC)c([N+](=O)[O-])c2)cc1OC | 13.8 | 13.9
CCCc1nc(N2CCCN(C(=O)Cc3cccs3)CC2)c2c(-c3ccccc3)noc2n1 | 15.0 | 2.9
CCOC(=O)c1nn(-c2ccc(F)cc2)c(=O)cc1N1CCN(c2ccccc2OC)CC1 | 1.4 | -1.2
CCCS(=O)(=O)N1CCN=C1SCc1ccc([N+](=O)[O-])cc1 | 7.3 | 8.0
CCOC(=O)C1=C(C)NC(C)=C(C(=O)OCC)C1C(=O)OCC(=O)c1ccc[nH]1 | -0.8 | 0.0
CCCc1c(C)nn(-c2ccc(C(=O)NCc3cccnc3)cc2)c1C | -6.9 | -10.3
CSc1nsc(SCc2csc(Cc3ccc(F)cc3Cl)n2)n1 | 27.4 | 27.7
CN1Cc2cc(F)ccc2N(CC(O)C(F)(F)F)CCC1=O (stereo not drawn) | -0.2 | 12.6
CCOC(=O)C(C(C)=O)C1CC(C)NC(=S)N1 (stereo not drawn) | 7.7 | 1.7
CCOC(=O)CC(=O)N1CCC(c2nc(-c3ccccc3)no2)CC1 | 5.8 | 2.1
CC(C)(C)NC(=O)N(Cc1cc(Cl)ccc1OS(=O)(=O)c1ccc(F)cc1)CC1CCCO1 (stereo not drawn) | 20.2 | 6.0
Cc1cc(C)cc(-c2ccc(-n3cncc3C(=O)NCc3ccccc3Br)cc2)c1 | 2.1 | -0.8
COc1ccc2c(c1)CCc1c(-c3ccc(C(=O)NCC4COC(C)(C)O4)cc3)n[nH]c1-2 (stereo not drawn) | 6.3 | 5.3
O=C(NCCCN1CCOCC1)C(C1CCCC1)N1CCN(C(=O)c2ccc(Cl)c(Cl)c2)CC1 (stereo not drawn) | -21.9 | -16.2
CCCCc1ccc(N2C3=[N+](CCCS3)CC2(O)c2ccc(C)cc2)cc1 (stereo not drawn) | -8.6 | -11.5
O=c1[nH]c2ccccc2nc1C(F)(F)C(F)(F)C(F)(F)C(F)F | 3.1 | 1.5
